Bioassay records as filed in PubChem BioAssay.
ID4 binder – binders of human ID4 protein; P47928; small molecule microarray, Flag-ID4 binding, fluorescence F/B; calls only; actives 1.2% (n = 31,000);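 active means spot signal over background at p below 0.07 in all four prints; compounds were printed on slides so no solution concentration is given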;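 further: a binder raises fluorescence above local background on the spot; about 2 pmol printed per array spot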
Target sequence (P47928 whole entry, looked up): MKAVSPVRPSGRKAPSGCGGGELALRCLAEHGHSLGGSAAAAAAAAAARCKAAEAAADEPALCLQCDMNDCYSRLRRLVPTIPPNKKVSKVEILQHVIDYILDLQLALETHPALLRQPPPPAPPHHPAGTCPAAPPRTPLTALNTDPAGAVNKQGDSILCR
Calls only; i = inactive.

nr	Structure	ID4 binder
1	CC(=O)N(C)C[C@@H]1Oc2ncc(C#Cc3cccc(F)c3)cc2C(=O)N([C@H](C)CO)C[C@@H]1C	i
2	C[C@@H]1CN([C@H](C)CO)C(=O)c2cc(C3=CCCCC3)cnc2O[C@@H]1CN(C)C(=O)Cc1ccccc1	i
3	CCC(=O)N(C)C[C@H]1Oc2ncc(-c3ccc(F)cc3)cc2C(=O)N([C@H](C)CO)C[C@@H]1C	i
4	C=CCSc1nnc(-c2ccccc2NC(=O)CC)c(=O)[nH]1	i
5	C[N+]1(C)C2CC[C@H]1CC(OC(=O)C(O)c1ccccc1)C2 (some centres undefined)	i
6	CC(C)(C)c1cc(C(=O)Oc2ccc(Cl)cc2)n(Cc2ccccc2)n1	i
7	COc1ccccc1N1CCN(CC(=O)Nc2ccc([N+](=O)[O-])cc2C(=O)Nc2ccccc2F)CC1	i
8	CC(=O)Nc1ccc(-c2nnc(SCC(=O)n3c4c(c5ccccc53)CCCC4)n2C)cc1	i
9	CCn1c(SCC(=O)c2cccc([N+](=O)[O-])c2)nnc1-c1ccc(Cl)cc1Cl	i
10	Cc1ccc(NC(=O)Cn2nc(C)c([N+](=O)[O-])c2C)cc1C	i
11	COc1ccc(OC)c(S(=O)(=O)N(C)CC(=O)Nc2ccccc2F)c1	i
12	COc1ccc([C@@H](C)C(=O)c2ccc(O)cc2O)cc1	i
13	O=C(CC1NC2CCCCC2NC1=O)Nc1ccc(F)cc1 (centres undefined)	i
14	Cc1ccc(NC(=O)CSc2nnnn2C)c(C)c1	i
15	O=C(CC1(O)C(=O)N(Cc2cccc3ccccc23)c2ccccc21)c1ccc(F)cc1 (centres undefined)	i
16	O=C(CC1(O)C(=O)N(CCc2ccccc2)c2ccc(Br)cc21)c1ccncc1 (centres undefined)	i
17	COc1cc(CCC(O)CC(O)CCc2ccc(O)c(O)c2)ccc1O (centres undefined)	i
18	COc1ccccc1-c1nc(SCC(=O)c2ccc(O)c(O)c2)n[nH]1	i
19	CCC(Sc1nnc(N)s1)C(=O)Nc1c(C)cccc1C (centres undefined)	i
20	CCOC(=O)C(C)Sc1ncnc2nc[nH]c12 (centres undefined)	i
21	COc1ccc(-c2cc(C(F)(F)F)n3nc(C(=O)NCCN4CCOCC4)c(Br)c3n2)cc1	i
22	Cc1sc(NC(=O)c2cnccn2)c(C(N)=O)c1-c1ccccc1	i
23	O=C(NC1CCCCC1)N[C@@H]1CC[C@@H](CC(=O)N2CCOCC2)O[C@H]1CO	i
24	COC(=O)C[C@H]1C[C@@H]2c3cc(NC(=O)C4CCOCC4)ccc3O[C@@H]2[C@@H](CO)O1	i
25	CN(C)C(=O)C[C@H]1C[C@H]2c3cc(NC(=O)CC4CC4)ccc3O[C@H]2[C@H](CO)O1	i
26	COC(=O)c1ccccc1NC(=O)CSc1n[nH]c(-c2ccncc2)n1	i
27	Cc1c(Cl)cccc1NC(=O)CSCC(N)=O	i
28	CCCC#Cc1ccc2c(c1)O[C@@H](CN(C)S(C)(=O)=O)[C@@H](C)CN([C@H](C)CO)S2(=O)=O	i
29	C[C@@H]1CN([C@H](C)CO)C(=O)c2cc(C#CCc3ccccc3)cnc2O[C@H]1CN(C)C(=O)C1CCC1	i
30	O=C(CCn1cnc2ccccc2c1=O)Nc1ccc2c3c(cccc13)CC2	i

Structural class: the entries above containing an NH in an aromatic ring (4)
nr	Structure	ID4 binder
4	C=CCSc1nnc(-c2ccccc2NC(=O)CC)c(=O)[nH]1	i
18	COc1ccccc1-c1nc(SCC(=O)c2ccc(O)c(O)c2)n[nH]1	i
20	CCOC(=O)C(C)Sc1ncnc2nc[nH]c12 (centres undefined)	i
26	COC(=O)c1ccccc1NC(=O)CSc1n[nH]c(-c2ccncc2)n1	i

(cont.)
nr	Structure	ID4 binder
31	C=CCOC(=O)[C@H]1[C@@H]2C(=O)O[C@@H](c3ccccc3)[C@@H](c3ccccc3)N2[C@@H](c2ccc(OCCOC(=O)[C@@H]3C[C@@H]4C(=O)N[C@@H](Cc5ccccc5)C(=O)N4[C@@H]3c3ccc(O)cc3)cc2)[C@]12C(=O)Nc1ccc(I)cc12	i
32	Cc1cc(C)c(C(=O)/C=C(\N2CCCC2)C(F)(F)F)c(=O)[nH]1	i
33	COc1ccc([N+](=O)[O-])cc1N(CC(=O)Nc1cccc(Br)c1)S(C)(=O)=O	i
34	CCOc1ccccc1Nc1nc(N)nc(CSc2nccc(C)n2)n1	i
35	Cc1cc(C)c(S(=O)(=O)Nc2c(C)[nH]c(=O)[nH]c2=O)c(C)c1	i
36	COC(=O)c1c(NC(=O)c2nc3nc(C)cc(C(F)F)n3n2)sc2c1CCC2	i
37	O=c1[nH]c(CSc2nnc(-c3ccccc3)o2)nc2ccccc12	i
38	CSc1ccccc1NC(=O)CN(c1ccccc1Br)S(C)(=O)=O	i
39	COC(=O)c1c(NC(=O)c2ccc(OC)c(OC)c2)sc2c1C(C(=O)OC)CC2 (centres undefined)	i
40	CN1CCN(C(=O)C[C@H]2CC[C@H](NC(=O)Nc3ccccc3F)[C@@H](CO)O2)CC1	i
41	O=C(C[C@@H]1C=C[C@H](NC(=O)c2ccncc2)[C@@H](CO)O1)NCCc1ccncc1	i
42	C[C@H]1CN([C@@H](C)CO)C(=O)c2cc(C#CCN(C)C)cnc2O[C@@H]1CN(C)C(=O)Cc1ccccc1	i
43	CCN(C(=O)Cn1c(-c2nonc2N)nc2ccccc21)c1ccccc1	i
44	CC(=O)N[C@H]1CC[C@@H](CC(=O)NCC2CCCCC2)O[C@H]1CO	i
45	CCCC#Cc1cnc2c(c1)C(=O)N([C@H](C)CO)C[C@H](C)[C@@H](CN(C)C(=O)c1ccc(F)cc1)O2	i
46	NCC[C@@H]1CC[C@@H](NC(=O)c2ccccc2F)[C@@H](CO)O1	i
47	COc1c(F)c(F)c(C(=O)O)c(Nc2ccc(C)cc2C)c1F	i
48	Cc1cc(C)c(S(=O)(=O)N(C)CC(=O)Nc2cc([N+](=O)[O-])ccc2C)c(C)c1	i
49	COCC(=O)N(C)C[C@@H]1Oc2cc(-c3ccc(C#N)cc3)ccc2S(=O)(=O)N([C@@H](C)CO)C[C@@H]1C	i
50	Cc1noc(C)c1NC(=O)N[C@@H]1CC[C@@H](CC(=O)N2CCCCC2)O[C@H]1CO	i
51	COc1ccccc1OCC(O)CO (centres undefined)	i
52	O=C(CSc1nc(N2CCCCC2)nc(N2CCCCC2)n1)N1CCc2ccccc21	i
53	Cc1cc(Br)ccc1NC(=O)CN(C)S(=O)(=O)c1ccc(Cl)cc1	i
54	CCn1c(SCC(=O)Nc2ccc([N+](=O)[O-])cc2C)nnc1-c1ccc(Cl)cc1	i
55	CCCC#Cc1cnc2c(c1)C(=O)N([C@H](C)CO)C[C@@H](C)[C@@H](CN(C)Cc1cccnc1)O2	i
56	O=C(NCC[C@H]1CC[C@H](NC(=O)C2CCC2)[C@H](CO)O1)c1cc(Cl)cc(Cl)c1	i
57	CCCC#Cc1cnc2c(c1)C(=O)N([C@@H](C)CO)C[C@H](C)[C@@H](CN(C)C(=O)CCN1CCCCC1)O2	i
58	C[C@@H]1CN([C@@H](C)CO)S(=O)(=O)c2ccc(-c3ccc(F)cc3)cc2O[C@@H]1CN(C)C	i
59	C=CCNC(=O)[C@@H]1[C@H]2C(=O)O[C@H](c3ccccc3)[C@H](c3ccccc3)N2[C@H](c2ccccc2OCCO)[C@@]12C(=O)N(C(=O)OCCOC)c1ccc(C#CC3(O)CCCCCC3)cc12	i
60	C[C@H](CO)N1C[C@H](C)[C@@H](CN(C)S(=O)(=O)c2cn(C)cn2)Oc2cc(C3=CCCCC3)ccc2S1(=O)=O	i

2 entries from above, as labelled records:
#31 C=CCOC(=O)[C@H]1[C@@H]2C(=O)O[C@@H](c3ccccc3)[C@@H](c3ccccc3)N2[C@@H](c2ccc(OCCOC(=O)[C@@H]3C[C@@H]4C(=O)N[C@@H](Cc5ccccc5)C(=O)N4[C@@H]3c3ccc(O)cc3)cc2)[C@]12C(=O)Nc1ccc(I)cc12
  ID4 binder = i
#32 Cc1cc(C)c(C(=O)/C=C(\N2CCCC2)C(F)(F)F)c(=O)[nH]1
  ID4 binder = i

(next part)
nr	Structure	ID4 binder
61	Cn1cnc(S(=O)(=O)N[C@H]2C=C[C@@H](CC(=O)NCC3CCCCC3)O[C@@H]2CO)c1	i
62	C[C@H]1CN([C@@H](C)CO)S(=O)(=O)c2ccc(Br)cc2O[C@@H]1CN(C)Cc1ccccn1	i
63	CN(CC(=O)Nc1ccc(C(F)(F)F)cc1)S(=O)(=O)c1ccc(Br)cc1	i
64	O=C(C[C@@H]1C=C[C@H](NS(=O)(=O)c2ccccc2)[C@H](CO)O1)NCc1ccc(Cl)c(Cl)c1	i
65	COc1cc(/C=C/C(=O)O)cc(OC)c1OC	i
66	COc1ccc(OC)c(NC(=O)c2c(NC(=O)c3ccco3)sc3c2CCC3)c1	i
67	COc1ccc(NC(=O)COc2ccc([N+](=O)[O-])cc2)c(OC)c1	i
68	CO[C@@H](CN(C)C(=O)c1cc(Cl)cc(Cl)c1)[C@@H](C)CN(C(=O)Nc1ccc(F)cc1)[C@@H](C)CO	i
69	C[C@H]1CN([C@@H](C)CO)C(=O)c2cc(-c3ccc(F)cc3)cnc2O[C@@H]1CN(C)C(=O)CN(C)C	i
70	CC(C)C(C(=O)O)N1C(=O)/C(=C/c2ccccc2)SC1=S (centres undefined)	i
71	CS(=O)(=O)N(CC(=O)NC1CCCCC1)c1cccc(Cl)c1	i
72	C[C@H](CO)N1C[C@H](C)[C@@H](CN(C)Cc2cccc(F)c2)Oc2ncc(Br)cc2C1=O	i
73	O=C(CSc1nc2ccccc2c(=O)n1Cc1ccccc1)c1cc2ccccc2o1	i
74	COc1ccc(CN2C(=O)C(O)(CC(=O)c3c(C)coc3C)c3ccccc32)cc1OC (centres undefined)	i
75	CCC(=O)N[C@@H]1CC[C@@H](CC(=O)OC)O[C@H]1CO	i
76	Cc1nc([N+](=O)[O-])c(Sc2nc3ncc(Cl)cc3[nH]2)n1Cc1ccccc1	i
77	Cc1ccc(-c2nc3cc(NC(=O)COc4ccccc4Cl)ccc3o2)c(C)c1	i
78	C[C@H](CO)N1C[C@H](C)[C@@H](CN(C)Cc2cccnc2)Oc2ncc(C#CC3CCCCC3)cc2C1=O	i
79	CC(=O)N(C)C[C@@H]1Oc2ncc(/C=C/c3ccccc3)cc2C(=O)N([C@H](C)CO)C[C@H]1C	i
80	COc1ccc(Cl)cc1NC(=O)N(C)Cc1c(C)nn(C)c1C	i

Arranged by number of heavy atoms (largest number first): part of the list above.
nr	Structure	ID4 binder
73	O=C(CSc1nc2ccccc2c(=O)n1Cc1ccccc1)c1cc2ccccc2o1	i
77	Cc1ccc(-c2nc3cc(NC(=O)COc4ccccc4Cl)ccc3o2)c(C)c1	i
71	CS(=O)(=O)N(CC(=O)NC1CCCCC1)c1cccc(Cl)c1	i

Next compounds:
nr	Structure	ID4 binder
81	COc1ccccc1OCC(=O)Nc1ccc(-c2nc3ccc(C)cc3[nH]2)cc1	i
82	OCCCNc1ncnc2oc(-c3ccccc3)c(-c3ccccc3)c12	i
83	COc1ccccc1C#Cc1ccc2c(c1)O[C@@H](CN(C)C)[C@@H](C)CN([C@H](C)CO)S2(=O)=O	i
84	COc1ccc(C#Cc2cnc3c(c2)C(=O)N([C@@H](C)CO)C[C@H](C)[C@@H](CN(C)CC2CCOCC2)O3)cc1	i
85	C[C@@H]1CN([C@H](C)CO)C(=O)c2cc(Br)cnc2O[C@@H]1CN(C)C(=O)C1CCCCC1	i
86	Clc1ccc(CSc2nnc(-c3cccs3)n2Cc2ccco2)c(Cl)c1	i
87	Oc1c(C(Nc2cccnc2)c2ccc(C(F)(F)F)cc2)ccc2cccnc12 (centres undefined)	i
88	C[C@H](CO)N1C[C@H](C)[C@H](CN(C)C)Oc2ncc(-c3cccc(C(=O)N(C)C)c3)cc2C1=O	i
89	Cc1cc(C)c2nc(-c3ccncc3)cc(C(=O)NCCCn3ccnc3)c2c1	i
90	COC(=O)c1cc(OC)c(OC)cc1NC(=O)COc1ccc2ccccc2c1Br	i
91	C[C@@H]1CN([C@@H](C)CO)C(=O)Cc2cc(NC(=O)C3CC3)ccc2O[C@@H]1CN(C)CC1CCCCC1	i
92	O=C1c2cccc(O)c2C(=O)c2c(O)cccc21	i
93	Cn1c(SCC(=O)Nc2ccc(Oc3ccc(Cl)cc3)cc2)nnc1-c1ccccc1O	i
94	CCC(=O)N(C)C[C@@H]1Oc2cc(-c3ccccc3OC)ccc2S(=O)(=O)N([C@H](C)CO)C[C@@H]1C	i
95	CS(=O)(=O)N(CC(=O)NC1CCCCCC1)c1cc(Cl)c(Cl)cc1Cl	i
96	C=CCn1c2ccccc2c2nnc(SCC(=O)c3ccc(C)cc3)nc21	i
97	Cc1ccc(S(=O)(=O)N[C@H]2CC[C@H](CC(=O)N3CCC(Cc4ccccc4)CC3)O[C@H]2CO)cc1	i
98	C[C@H]1CN([C@@H](C)CO)C(=O)c2ccccc2-c2ccccc2CO[C@@H]1CN(C)CC1CC1	i
99	O=C(N[C@@H]1CC[C@@H](CC(=O)N2CCOCC2)O[C@H]1CO)c1cccc(F)c1	i
100	COc1ccc(C)cc1S(=O)(=O)N(C)CC(=O)Nc1cccc(C(F)(F)F)c1	i
101	COc1ccc(S(=O)(=O)NCc2ccco2)cc1-c1nnc2c3ccccc3c(C)nn12	i
102	CCOc1ccc(NC(=O)Cn2cnc3scc(-c4ccc(C)cc4)c3c2=O)cc1	i
103	Cc1ccccc1NC(=O)CSc1nc(Nc2ccccc2)nc(N2CCOCC2)n1	i
104	COc1ccc(NC(=O)CSc2nc3ccccc3[nH]2)cc1Cl	i
105	O=C(CSc1ncnc2sc3c(c12)CCC3)Nc1ccc(Cl)cc1	i
106	CN(C)CCCNC(=O)C[C@@H]1CC[C@H](NC(=O)Cc2cccnc2)[C@@H](CO)O1	i
107	CS(=O)(=O)N(CC(=O)O)Cc1ccc(Cl)cc1	i
108	COc1cc(OC)c(C(=O)NCCCN2CCOCC2)cc1OC	i
109	O=C(CCN1C(=O)C2C3C=CC(C4CC34)C2C1=O)Nc1ccc(Cl)cc1O (centres undefined)	i
110	CCOC(=O)c1c(NC(=O)COc2cccc(Cl)c2)sc(C)c1C	i
111	Cc1sc(NC(=O)COc2ccc(Cl)cc2Br)c(C(N)=O)c1C	i
112	COc1cccc(C(=O)NC(c2ccc([N+](=O)[O-])cc2)c2c(O)ccc3ccccc23)c1 (centres undefined)	i
113	COc1ccc(C2(CNC(=O)C3COc4ccccc4O3)CCCC2)cc1OC (centres undefined)	i

An excerpt; rates above refer to the full screens.
